# Screening data (PubChem)
# TSHR ag – activates the human thyroid stimulating hormone receptor | P16473 | HEK293-CNG-TSHR cells (CNG channel as cAMP sensor), membrane potential dye, cAMP | Potency, µM (titrated, usually from 57.1 µM), for inactives: at the top dose activation, most hits filed as activators | 73,000 tested, 0.48% active | AID 926; active = well fitted activation curve of enough size with the parental cells flat; inconclusive = any curve in the parental cells; inactive = parental cells flat and receptor cells flat or falling; note: potency is the fitted concentration of half-maximal effect; % of control where 0% means no effect; weak receptor curves with flat parental cells got no call and are not listed
# Target sequence (P16473 whole entry, looked up): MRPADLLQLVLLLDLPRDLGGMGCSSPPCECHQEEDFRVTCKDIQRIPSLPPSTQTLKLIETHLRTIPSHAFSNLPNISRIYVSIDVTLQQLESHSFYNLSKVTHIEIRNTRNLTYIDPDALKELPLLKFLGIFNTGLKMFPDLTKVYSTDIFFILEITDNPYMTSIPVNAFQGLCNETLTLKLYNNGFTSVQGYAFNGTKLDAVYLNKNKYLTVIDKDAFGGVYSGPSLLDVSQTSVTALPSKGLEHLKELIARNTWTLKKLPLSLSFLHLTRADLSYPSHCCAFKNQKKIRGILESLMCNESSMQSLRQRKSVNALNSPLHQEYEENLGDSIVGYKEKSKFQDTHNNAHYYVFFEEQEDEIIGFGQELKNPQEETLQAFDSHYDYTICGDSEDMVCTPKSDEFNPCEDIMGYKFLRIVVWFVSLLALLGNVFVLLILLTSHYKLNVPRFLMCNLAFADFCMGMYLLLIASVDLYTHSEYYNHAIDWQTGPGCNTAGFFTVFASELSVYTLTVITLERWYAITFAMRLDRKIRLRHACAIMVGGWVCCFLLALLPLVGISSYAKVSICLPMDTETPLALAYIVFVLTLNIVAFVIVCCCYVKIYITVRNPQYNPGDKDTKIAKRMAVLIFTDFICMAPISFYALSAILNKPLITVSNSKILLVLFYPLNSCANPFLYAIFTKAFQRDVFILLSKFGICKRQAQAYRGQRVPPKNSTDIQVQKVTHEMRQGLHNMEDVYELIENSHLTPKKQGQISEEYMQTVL
#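 HEK 293 cells stably expressing TSHR and a modified CNG channel, with CNG-only parental cells as counterscreen, were preloaded 60 min at room temperature with membrane potential dye containing 100 uM RO 20-1724. Compound exposure was 30 min, and depolarization was read as fluorescence at 590 nm.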
# A488 fluor – compound fluoresces in the A488 spectral region; compound autofluorescence, A488 spectral region, dye equivalency; stronger effect = higher value; max dye equivalency, M; 59,000 tested, 0.1% active; AID 591; active = above 10 nM dye equivalent; inconclusive = 1 to 10 nM; inactive = 1 nM or less; about half of its hits are not listed in these tables;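 note: highest value over a series up to 38 µM; compound alone in buffer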
#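 Intrinsic compound fluorescence is measured in 100 mM Tris buffer at pH 8.0 following 15 min incubation at room temperature. Intensities at 480 nm excitation/540 nm emission are calibrated to an on-plate A488 concentration series, giving dye-equivalent concentrations.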
# Resorufin fluor – compound fluoresces in the resorufin spectral region; 59,000 tested, 0.04% active; Compound fluorescence, resorufin region 547/598 nm, buffer; stronger effect = higher value; max dye-equivalent concentration, M; active = above 10 nM dye equivalent; inconclusive = 1 to 10 nM; inactive = 1 nM or less; a few of its hits are not listed in these tables; note: highest value over a series up to 38 µM
#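 Dye-equivalent concentration values derive from comparing each well's 547/598 nm fluorescence against resorufin standards included on every plate. Incubation was 15 min at room temperature in 100 mM Tris, pH 8.0.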
# AID923 – qHTS Assay for Allosteric/Competitive Inhibitors of Caspase-1: Spectroscopic Profiling in AFC Spectral Region | compound fluorescence, AFC spectral region (405/520 nm); almost no hit is shown here | Potency, µM (highest dose often 57.5 µM), for the others: top-dose fluorescence increase, actives largely listed as activators | 75,000 tested, 1.1% active | AID 923, 2007; active = well fitted activation curve with a large enough effect; inconclusive = small, poorly fitted or top-dose-only effect;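 note: potency is the fitted concentration of half-maximal effect; 0% is about no effect; scaled to a free AFC standard on each plate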
#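 Baseline compound fluorescence (AFC region, 405 nm ex/520 nm em) taken from the intercept of kinetic reads with 50 nM caspase-1 and 5 uM Ac-WEHD-AFC; normalized to an on-plate AFC standard curve; compounds titrated up to 57 uM.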
# A647 fluor – A647 region autofluorescence. Compound fluorescence, A647 channel (570/671 nm), Tris buffer. max dye-equivalent concentration, M. 59,000 tested, under 10 active. AID 592; active means above 1 µM dye equivalent; inconclusive means 0.1 to 1 µM; inactive means 0.1 µM or less;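 note: values scaled relative to a standard on each plate; highest value over a series up to 38 µM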
#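 Compounds pinned into 100 mM Tris pH 8.0, 15 min at room temperature, then read with 570 nm excitation/671 nm emission filters. Fluorescence normalized to an on-plate six-point Alexa 647 standard curve, giving dye-equivalent concentration per compound concentration.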
# * marks the source's active call; other numbers are inactive results; i = inactive; ? = inconclusive; · = no result given; & = joins results of further samples; [ ] = another dose, or the depositor's remark. This is a subset. The share of hits here may be higher or lower than overall.
# Order of results: TSHR ag | A488 fluor | Resorufin fluor | AID923 | A647 fluor
- Cc1cc(NC(=O)Cn2c(=O)c3c(ncn3CCC(C)C)n(Cc3ccccc3)c2=O)no1
 : 8.3% | i | i | -1.1% | 4.59e-08
- CC1CC(C)CN(C(=O)C(NS(=O)(=O)c2ccc3c(c2)oc(=O)n3C)C(C)C)C1 (stereo not drawn)
 : 11.3% | · | · | -2.2% | ·
- O=C(O)c1cnn2c(C(F)(F)F)cc(-c3ccco3)nc12
 : · | i | i | · | 6.68e-08
- CN(C1CCCCC1)S(=O)(=O)c1ccc2c(c1)c(=O)c(C(=O)NCCCN1CCCC1)cn2C
 : -3.1% | · | · | -0.2% | ·
- COc1cc(C2Nc3cccc4cccc(c34)N2)cc(OC)c1OC(C)=O
 : · | i | i | · | 7.62e-08
- Cc1nc2oc3ccccc3c(=O)c2c(=O)n1Cc1ccccc1
 : 3.2% | i | i | -1.1% | 1e-09
- CCN1C(C)=C(C(=O)OC)C(c2ccccc2)N2C(=O)[C@](O)(C(=O)OC)CC(C#N)=C12 (stereo partly drawn)
 : -2.5%[11.4 µM] | · | · | -0.6%[11.5 µM] | ·
- CC(=O)c1c(C)n(-c2ccccc2)c2ccc(O)cc12
 : 8.2% | i | i | -0.5% | 2.6e-08
- CC(C)(C)c1ccc(OC(=O)Nc2ccc(O)c(C(=O)O)c2)cc1
 : -8.8%[11.4 µM] | i | i | 0.7%[11.5 µM] | 4.8e-08
- COCCNS(=O)(=O)c1ccc2c(c1)C(=O)c1cc(S(=O)(=O)NCCOC)ccc1-2
 : ? | · | · | 1.5% | ·
- CCc1ccccc1N1C(=O)C2CC=CCC2C1=O (stereo not drawn)
 : 6.4% | · | · | -2.0% | ·
- Cn1cccc1Cc1nnc(SCC(=O)NC2CCCC2)n1CCc1ccccc1
 : 9.0% | · | · | 2.1% | ·
- COc1ccc(NC(=O)C2CC(c3cc(OC)c(OC)c(OC)c3)=NO2)cc1OC (stereo not drawn)
 : -7.0% | i | i | 0.2% | 2.44e-08
- CCCCC(c1nnnn1CCOC)N1CCN(c2cccc(OC)c2)CC1 (stereo not drawn)
 : ? | i | i | -0.1% | 3.51e-08
- O=C(O)C1CCCCC1C(=O)Nc1ccccn1 (stereo not drawn)
 : 3.4% | i | i | -1.0% | 1.7e-09

# Among those listed so far, 3 have an aryl methoxy group:
# Order of results: TSHR ag | A488 fluor | Resorufin fluor | AID923 | A647 fluor
- COc1cc(C2Nc3cccc4cccc(c34)N2)cc(OC)c1OC(C)=O
 : · | i | i | · | 7.62e-08
- COc1ccc(NC(=O)C2CC(c3cc(OC)c(OC)c(OC)c3)=NO2)cc1OC (stereo not drawn)
 : -7.0% | i | i | 0.2% | 2.44e-08
- CCCCC(c1nnnn1CCOC)N1CCN(c2cccc(OC)c2)CC1 (stereo not drawn)
 : ? | i | i | -0.1% | 3.51e-08

# Additional results follow.
# Order of results: TSHR ag | A488 fluor | Resorufin fluor | AID923 | A647 fluor
- O=C(O)c1cc(O)ccc1-c1ccc(O)cc1
 : 9.3% | i | i | -0.8% | 4.5e-09
- Cc1cnc(C(=O)Nc2ccc(C(=O)N(C)C3CCCCC3)cc2)cn1
 : 8.0% | i | i | -0.4% | 1.5e-09
- CCOc1ccc(CC(=O)NCc2cn3c(C)csc3n2)cc1
 : 19.6% | · | · | -2.2% | ·
- CCOc1nc(OCC)nc(N2CCC(C)CC2)n1
 : ? | i | i | -0.9% | 1e-09
- COc1ccccc1CN(CC(=O)NCC1CCCO1)C(=O)CNS(=O)(=O)c1ccc(C)cc1 (stereo not drawn)
 : 1.9% | i | i | -0.5% | 5.4e-08
- COCc1[nH]nc2c1C(c1sccc1C)C(C#N)=C(N)O2 (stereo not drawn)
 : · | i | i | · | 1e-09
- CCCCOc1ccc(C(=O)NC)cc1
 : 0.1% | i | i | 1.2% | 1e-09
- Cc1cccc(CNc2ncncc2-c2ccccc2Cl)c1
 : ? | i | i | 2.2% | 3.8e-09
- Cc1nc2nc(CSc3nnc(C)s3)cc(=O)n2[nH]1
 : -1.3% | i | i | -1.9% | 1.28e-08
- Cc1cc(C)n(-c2ccc(C(=O)N3CCc4ccccc43)cc2)n1
 : 26.9% | i | i | 0.6% | 2.74e-08
- COc1ccc(-c2nnc(SCC(=O)NCc3ccco3)o2)cc1
 : -0.8% | i | i | 0.0% | 9.1e-09
- CCCCN1C(=O)/C(=C2\SC(N3CCCCC3)=NC2=O)c2ccccc21
 : -10.3% | · | · | -2.3% | ·
- COC(=O)CN(c1ccccc1)S(=O)(=O)c1ccc(F)cc1
 : 21.6% | i | i | -0.5% | 6.7e-09
- O=c1c2nnn(Cc3ccccc3)c2ncn1-c1ccccc1
 : 3.6% | i | i | 0.9% | 1e-09
- CCOc1cccc(OCCCCN2CCCCC2)c1
 : ? | i | i | -1.5% | 1.8e-09
- O=C(Cn1c(-c2cncs2)nc2ccccc21)NCCc1ccccc1
 : ? | · | · | -0.2% | ·
- CCc1ncc(C(O)c2cccc3ccccc23)n1C (stereo not drawn)
 : ? | i | i | 0.6% | 1.5e-08
- OC1CCN(c2ncnc3nc[nH]c23)CC1
 : 21.5% | · | · | -4.5% | ·
- CC(C)(Oc1ccc([C@@H]2CC2(Cl)Cl)cc1)C(=O)O
 : ? | i | i | 1.4%[25.7 µM] | 1e-09&2.44e-08
- CC(=O)O[C@@H]1C(=O)[C@@]2(C)[C@H](O)C[C@H]3OC[C@]3(OC(C)=O)[C@@H]2[C@H](OC(=O)c2ccccc2)[C@@]2(O)C[C@H](OC(=O)[C@@H](O)[C@@H](NC(=O)c3ccccc3)c3ccccc3)C(C)=C1C2(C)C (stereo in doubt)
 : -3.0%[25.6 µM] | i | i | -0.7%[25.7 µM] | 1.53e-08&2.1e-09
- CCOC(=O)N1CCN(S(=O)(=O)c2ccc(C)cc2)C1c1ccccc1 (stereo not drawn)
 : ? | · | · | -0.2% | ·
- CCOC(=O)NC(Nc1ncccn1)(C(F)(F)F)C(F)(F)F
 : ? | · | · | -0.6% | ·
- COc1ccc2cc(C3(C)NC(=O)N(CC(=O)NCc4ccco4)C3=O)ccc2c1 (stereo not drawn)
 : ? | i | i | -0.8% | 3.7e-09
- CCN(CC(=O)NC1CCS(=O)(=O)C1)c1nc(-c2ccccc2)nc2ccccc12 (stereo not drawn)
 : -1.2% | i | i | -1.2% | 3.55e-08
- O=C(c1ccc(N2CN(C(=O)c3ccco3)c3nc4ccccc4nc32)cc1)N1CCOCC1
 : 1.26µM* | i | i | 3.5% | 2.98e-08
- Cc1c(NC(=O)C2CCCN(S(=O)(=O)c3cnc[nH]3)C2)c(=O)n(-c2ccccc2)n1C (stereo not drawn)
 : -11.6% | · | · | 0.0% | ·
- CCc1cccc(CC)c1NC(=O)CSc1nnc(C(C)C)n1CC
 : 4.9% | i | i | -0.2% | 3.24e-08
- COCCCN(C(C)=O)c1nc(-c2ccc(OC)cc2)cs1
 : 12.3% | i | i | -2.8% | 1e-09
- Clc1ccc(-c2nnc3sc(-c4ccc(Br)o4)nn23)cc1
 : · | i | i | -0.6% | 3.19e-08
- CCNc1nnc(-c2ccc(C)cc2)o1
 : 0.5% | i | i | -1.3% | 2.2e-09
- Cn1c(SCc2cccnc2)nc2cccnc21
 : 0.6% | i | i | 0.1% | 1.2e-09
- CCS(=O)(=O)N1CCC(C(=O)NCc2ccc(F)cc2)CC1
 : 18.3% | i | i | 0.3% | 1e-09
- CC(C)(C)c1ccc(OCC2CO2)cc1 (stereo not drawn)
 : 3.0% | · | · | 2.0% | ·
- CC1CCCN(C(=O)C2CCN(CCCc3ccccc3)CC2)C1 (stereo not drawn)
 : 3.4% | i | i | 0.0% | 9e-09
- COc1ccc2cc3cc(C(=O)NCCN4CCN(Cc5ccccc5)CC4)oc3nc2c1
 : ? | i | i | 0.9% | 4.1e-09
- COc1cc(NC(=O)CSc2nnc(C)s2)cc(OC)c1
 : 3.9% | i | i | -0.2% | 4.6e-09
- CCS(=O)(=O)N(C)[C@@H]1c2cc(C#N)ccc2OC(C)(C)[C@H]1O
 : -3.1%&1.4% | · | · | -0.4%&0.2% | ·
- CC(C)(O)CCC(C)(C)O
 : 6.2% | · | · | 0.7% | ·
- O=c1c(-c2ccc(F)c(F)c2)nc2cncnc2n1C1CC1
 : 0.1% | i | i | 2.7% | 1e-09
- Nc1[nH]nc2nc(NCc3ccccc3)c3c(c12)CCN(Cc1ccccc1)C3
 : · | i | i | · | 3.11e-08
- CCOC(=O)Cc1csc(NC(=O)c2ccco2)n1
 : 5.0% | i | i | -1.0% | 1.54e-08
- C=CCn1cc(C(=O)NCCCOCC)c(=O)c2cc(S(=O)(=O)N(CC)CC)ccc21
 : 6.5% | i | i | 0.0% | 1e-09
- Clc1ccccc1Cn1nnc(-c2cccs2)n1
 : 28.0% | i | i | -1.5% | 4.24e-08
- CSC1=NCCN1C(=O)c1ccc(S(=O)(=O)N2CCOCC2)cc1
 : 1.5% | · | · | 1.5% | ·
- COC(=O)CC1SC(=O)NC1=O (stereo not drawn)
 : · | i | i | · | 1e-09
- CCOc1ccc(NC(=O)CCS(=O)(=O)c2cccc3nsnc23)cc1
 : 3.5% | i | i | 0.4% | 3.8e-09
- Cc1c(N=Cc2c(O)n(C3CCCCC3)c(=O)[nH]c2=O)c(=O)n(-c2ccccc2)n1C
 : · | i | i | · | 2.46e-08
- O=C(O)COc1ccc(Br)cc1/C=N/O
 : ? | · | · | -0.2% | ·
- COc1cc(C2C(C(C)=O)=C(O)C(=O)N2CCc2ccc(OC)c(OC)c2)ccc1O (stereo not drawn)
 : 4.8% | i | i | -0.7% | 1.2e-08
- COc1ccc(N2CCCCn3c2nc2c3c(=O)[nH]c(=O)n2C)cc1
 : -6.0% | i | i | 0.5% | 1.82e-08
- C#CC1(O)CC(C)NCC1(C)CCC#N (stereo not drawn)
 : -84.0%[inhibitor] | i | i | 1.6% | 3.78e-08
- O=C(Cc1cccs1)Nc1ccc(C(=O)O)cc1
 : -1.7% | i | i | -1.5% | 1.53e-08
- O=C(NC1(C(F)(F)F)NC(=O)N(C2CCCCC2)C1=O)c1cccs1 (stereo not drawn)
 : -6.2% | i | i | -2.3% | 4.67e-08
- O=C(Nc1ccc2c(c1)OCO2)Nc1cnccn1
 : 1.0% | i | i | 2.2% | 1e-09
- CCCCC(=O)Nc1ncc(Br)s1
 : 2.8% | i | i | -1.6% | 1e-09
- C[C@@H](C(=O)Cc1ccc2ccccc2c1)[C@@H]1C[C@@]1(C)[C@@H](NP(=O)(c1ccccc1)c1ccccc1)c1ccccc1
 : 4.4% | · | · | -0.2% | ·
- Cc1ccc2oc(C(=O)Nc3c(C)n(C)n(-c4ccccc4)c3=O)c(C)c2c1
 : 13.4% | i | i | 0.1% | 1e-09
- CCOC(=O)C1CCN(c2ncnc3nc[nH]c23)CC1
 : 9.4% | · | · | -1.9% | ·
- [O-]/[N+](=C/c1ccc(F)cc1)c1ccccc1
 : ? | i | i | -0.9% | 6.1e-09
- c1ccc(CNc2ncncc2-c2cccnc2)cc1
 : 5.2% | i | i | 2.2% | 2.3e-09

# (next part)
# Order of results: TSHR ag | A488 fluor | Resorufin fluor | AID923 | A647 fluor
- COCCOC(=O)c1c(C)oc2ccc(OCC=C(C)C)cc12
 : ? | · | · | 2.7% | ·
- C=C(C)CSc1nnc(-c2ccc(OC)c(OC)c2)n1N
 : -3.1% | i | i | 1.2% | 1e-09
- O=C(O)CNC(=O)c1ccccc1F
 : 20.6% | i | i | 0.4% | 9.3e-09
- Cc1[nH]nc2c1C(c1ccc(F)cc1)C(C#N)=C(N)O2 (stereo not drawn)
 : 1.6% | i | i | 0.4% | 3.2e-09
- COc1ccc(S(=O)(=O)N(C)c2ccc(C(=O)NCC3CCCO3)cc2)cc1 (stereo not drawn)
 : 1.3% | i | i | -0.9% | 3.92e-08
- Cc1nc2c(F)c(F)c(C(F)(F)F)c(F)c2[nH]1
 : 7.3% | i | i | 0.2% | 1e-09
